Bioassay records from PubChem.
KAT2A inh: qHTS Assay for Inhibitors of GCN5L2 | hit rate 0.21% among 390,000 | Potency, µM (top dose mostly 58.9 µM), for the others: top-dose activity change, negative = inhibition, actives largely listed as inhibitors | GCN5L2 HAT assay, ThioGlo1 CoA-SH fluorescence | AID 504327, 2011; active = well fitted inhibition curve with a large enough effect; inconclusive = small, poorly fitted or top-dose-only effect, or another doubt; inactive = no such curve, though single readings can be large or run the other way
Target sequence (Q92830 whole entry, looked up): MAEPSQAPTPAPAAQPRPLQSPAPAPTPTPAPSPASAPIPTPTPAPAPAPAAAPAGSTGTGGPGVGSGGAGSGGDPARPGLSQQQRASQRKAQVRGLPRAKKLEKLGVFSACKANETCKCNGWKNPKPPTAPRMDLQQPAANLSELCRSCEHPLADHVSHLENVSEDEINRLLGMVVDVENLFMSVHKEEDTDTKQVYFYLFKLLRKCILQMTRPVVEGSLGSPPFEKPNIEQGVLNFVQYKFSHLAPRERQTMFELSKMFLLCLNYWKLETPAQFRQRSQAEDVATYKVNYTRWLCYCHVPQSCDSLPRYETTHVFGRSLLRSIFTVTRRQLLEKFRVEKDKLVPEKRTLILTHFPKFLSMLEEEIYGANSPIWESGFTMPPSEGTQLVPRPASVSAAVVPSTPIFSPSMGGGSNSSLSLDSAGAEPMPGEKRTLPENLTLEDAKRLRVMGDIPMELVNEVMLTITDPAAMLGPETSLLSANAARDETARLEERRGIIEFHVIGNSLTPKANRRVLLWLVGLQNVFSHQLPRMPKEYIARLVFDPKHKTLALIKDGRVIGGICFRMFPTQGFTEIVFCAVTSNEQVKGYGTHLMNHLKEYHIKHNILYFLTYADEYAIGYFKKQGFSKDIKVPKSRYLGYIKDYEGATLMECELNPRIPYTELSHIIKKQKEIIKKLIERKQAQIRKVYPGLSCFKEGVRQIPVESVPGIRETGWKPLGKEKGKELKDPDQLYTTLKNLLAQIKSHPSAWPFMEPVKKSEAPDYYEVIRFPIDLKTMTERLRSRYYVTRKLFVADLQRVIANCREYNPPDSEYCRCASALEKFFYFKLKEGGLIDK
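Preincubate 20nM GCN5L2 with compound 15 min, RT → add 50uM ThioGlo1 + 75uM H3(1-25) + 70uM acetyl-CoA → read fluorescence 0 and 20 min. Primary qHTS; fluorescent artifacts likely.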
An asterisk follows results filed as active; ? = inconclusive; & = joins results of further samples; [ ] = remark or other dose. % is set by controls: 0 for no effect and ±100 for the full control effect; potency is the fitted concentration of half-maximal effect. An excerpt, and most or all hits are left out here.

KAT2A inh	canonical_smiles
-5%	O=C(N/N=C/c1ccc([N+](=O)[O-])o1)c1ccc(NS(=O)(=O)c2cccs2)cc1
2%	CCn1cc([N+](=O)[O-])c(C(=O)Nc2c(C)nn(Cc3cccc(F)c3)c2C)n1
-6%	COc1ccc(NC(=O)c2cc(-c3cccnc3)nc3ccc(C)cc23)cc1OC
-10%	CCc1ccc(Oc2nc3c(C)cccn3c(=O)c2/C=C(\C#N)c2nc3ccccc3s2)cc1
-7%	Cc1ccc(C)c(NC(=O)Cn2nnc(-c3ccc(N4CCOCC4)cc3)n2)c1
-3%	CC(C)(C)OC(=O)N1CCC(c2c(C(=O)N3CCN(c4ccccn4)CC3)cnn2-c2ccc(F)cc2)CC1
-2%	CSc1ccc(/C=C(/NC(=O)c2ccco2)C(=O)N2CCCCCC2)cc1
0%	CCOc1ccc(CNC(=O)c2ccc(CS(=O)Cc3ccc(Cl)cc3)o2)cc1 (stereo unspecified)
-9%	C#CCn1c(=NC(=O)c2ccc3c(c2)OCCO3)sc2cc(OC)c(OC)cc21
-4%	CCCCNC(=O)c1ccc(SCC(=O)N(CC)CC)c([N+](=O)[O-])c1
-2%	O=C1CCSC2(C(=O)N(Cc3ccc(F)cc3)c3ccccc32)N1c1ccc(Cl)cc1 (stereo unspecified)
-6%	CC1CCN(c2oc(-c3ccccc3Cl)nc2C#N)CC1
?	Cn1c(Sc2ccc(C(F)(F)F)cc2[N+](=O)[O-])nnc1-c1ccccc1
-5%	CC(C)C(=O)Nc1cccc(C(=O)Nc2nnc(C(F)(F)F)s2)c1
-4%	O=c1c2c(n3cnnc3n1-c1ccccc1)-c1ccccc1CC21CCCC1
4%	CC(C)OC(=O)C1C(=O)CC(C)(O)C(C(=O)OC(C)C)C1c1ccccc1 (stereo unspecified)
6%	NNC(=O)C1CCCN1S(=O)(=O)c1ccc(Cl)cc1 (stereo unspecified)
-2%	Cc1ccc(S(=O)(=O)CNC(=O)c2ccccc2)cc1
-5%	COc1cccc(C2CCCN2Cc2nc(-c3sccc3C)oc2C)c1 (stereo unspecified)
-5%	CCCNS(=O)(=O)c1cccn1-c1ncc(C(F)(F)F)cc1Cl
0%	CCOC(=O)c1cn(C2CC2)c2c(F)c(F)c(F)cc2c1=O
-4%	Cn1cccc1/C=N/NC(=O)Cn1cnc2ccccc21
1%	Cc1ccccc1C(=O)Nc1cccc(-c2nnc(SCC(=O)O)n2C)c1
1%	CCOC(=O)N1CCC(n2c(=S)[nH]c3cc(OC)c(OC)cc3c2=O)CC1
-2%	N/C(CSc1ncccc1C(F)(F)F)=N\O
-3%	Cc1ccc2c(C)c(C(=O)Nc3ccc(S(=O)(=O)Nc4onc(C)c4C)cc3)oc2c1
-4%	CCCN(CCC)Cc1c(C(=O)N/N=C/c2ccc(C)o2)nnn1-c1nonc1N
-1%	CC(=O)N1CCc2cc(S(=O)(=O)NC(CC(C)C)C(=O)NCc3ccccc3)ccc21 (stereo unspecified)
1%	CN1CCCC(OC(=O)COc2ccccc2)C1 (stereo unspecified)
-1%	O=C(NCC(c1cccs1)N1CCOCC1)c1cc(=O)[nH]c2ccccc12 (stereo unspecified)
3%	O=C1C2C3C=CC(C3)C2C(=O)N1c1n[nH]c(CCc2ccccc2)n1 (stereo unspecified)
-5%	COc1cccc(-n2c(=O)c3sc4ccccc4c3n(CC(=O)Nc3ccc(F)cc3F)c2=O)c1
-6%	CS(=O)(=O)N(CC(=O)Nc1ccc(S(=O)(=O)N2CCCC2)cc1)c1ccccc1F
-3%[0.501 µM]	OCCN(Cc1ccccc1)Cc1ccc(Cl)cc1
-7%	CCN(CC(=O)Nc1ccccc1C(F)(F)F)C(=O)CSCc1ccc(C)cc1
-7%	CC(/C=N/n1c(-c2ccc(C)cc2)n[nH]c1=S)=C\c1ccco1
-4%	CCOc1ccc(NC(=O)Nc2ccccc2C(N)=O)cc1
-4%	CCN(Cc1nc2ccccc2c(=O)[nH]1)Cc1cc(=O)oc2cc(OC)ccc12
-13%	COc1ccc(N2C(=O)C(CC(=O)Nc3ccccc3)N(Cc3ccccn3)C2=S)cc1 (stereo unspecified)
-7%	CCOCCCNC(=S)N1CCCN(c2nc3cc(C)c(C)cc3cc2C#N)CC1
-1%	Cc1ccc(NC(=S)NC(NC(=O)N(C)C)C(Cl)(Cl)Cl)cc1 (stereo unspecified)
-6%	CCC(=O)N1CCc2cc(Br)cc(S(=O)(=O)N3CCCC(C(=O)Nc4ccc(C)c(F)c4)C3)c21 (stereo unspecified)
-5%	Cc1cc(N2CCN(C(c3ccccc3)c3ccc(Cl)cc3)CC2)n2ncnc2n1 (stereo unspecified)
0%	COc1ccc(NC(=O)C2CC(=O)N(C(C)C)C2)cc1 (stereo unspecified)
-2%	COc1ccc(Cc2nc3ccc(C(=O)N(C)CC4COCCO4)cc3o2)cc1 (stereo unspecified)
3%	CCCN(CC(=O)Nc1ccccc1C)C(=O)CCCNC(=O)c1ccc(Cl)cc1
-2%	O=C(COc1ncnc2ccccc12)NC1CCCC1
-4%	O=C(/C=C/c1cccs1)NC(=S)NNC(=O)Cc1cccs1
1%	COc1ccc(CC(=O)Nc2cccc(Cl)c2C)cc1S(=O)(=O)N1CCOCC1
-2%	O=C(O)c1ccccc1-c1nc2ccccc2c(=O)[nH]1

The listing continues.
KAT2A inh	canonical_smiles
-28%	O=S(=O)(Nc1cccnc1)c1ccc2c(c1)OCCO2
0%	COc1ccc(-c2nnc(SCC(=O)c3cccs3)o2)cc1
0%	CC(C)c1ccccc1NC(=O)COC(=O)c1cccnc1
-8%	COc1ccc(OCCn2cc(/C=C(\C#N)C(=O)NCc3ccco3)c3ccccc32)cc1
42%&0%[activator]	OCc1cccnc1
-7%	Cc1cc(=O)n(-c2ccc(Cl)cc2)c(=O)[nH]1
-10%	O=C(CCCCO)c1ccc(O)c(Cl)c1
0%	CCOC(=O)/C=C/C(=O)OCC(=O)NCc1ccccc1
-2%	COc1cccc(-c2nnc(SCC(=O)N(C)C3CCCCC3)o2)c1
0%	Cc1ccc(NC(=O)CC2Oc3ccc(C)cc3NC2=O)cc1 (stereo unspecified)
?	OCCNc1nc2ccccc2[nH]1
7%	Cc1ccc(OCC(=O)NC2CCCC2)c(C)c1
-9%	Cc1ccc(OCC(=O)N(Cc2ccco2)Cc2ccco2)cc1C
-11%	CC1(C)CCc2c([nH]c3ccccc3c2=O)O1
-2%	O=C1CCCCN1CCC(=O)N1CCCC(N2CCN(c3ccccc3)CC2)C1 (stereo unspecified)
0%	CS(=O)(=O)c1cnc(-c2cccnc2)nc1N
10%	COc1cccc(Cn2cnc3c(NS(=O)(=O)c4ccc(Cl)cc4)c(C)c(C)cc32)c1
-14%	COc1ccccc1C(=O)N/C(=C/c1ccccc1)C(=O)NC(CCSC)C(=O)O (stereo unspecified)
-7%	CCC(C(=O)N1CCN(c2cccc(Cl)c2)CC1)c1ccccc1 (stereo unspecified)
2%	O=C1Nc2ccccc2C1(O)c1ccccc1 (stereo unspecified)
-5%	COc1ccccc1CNC(=O)c1cc2c(s1)-c1ccc(Cl)cc1SC2
-7%	CC1(C)Cc2c(sc(NC(=O)c3ccco3)c2C(=O)O)CO1
3%	Cn1c(=N)n(CC(=O)O)c2ccccc21
-7%	N#Cc1cccc(C(=O)OCC(=O)NC(=O)NC2CCCCC2)c1
2%	COC(=O)c1ccc(C2C(C#N)=C(N)Oc3cc(C)n(C)c(=O)c32)cc1 (stereo unspecified)
-2%	CCCC(C(=O)NC1CCCC1)N(Cc1ccccc1)C(=O)c1snc(C(N)=O)c1N (stereo unspecified)
-5%	Cc1cc(OCC(=O)NCC2(N(C)C)CCCCC2)cc(C)c1Cl
1%	CC1/C(=N/O)CC(c2ccccc2)N(C)C1c1ccccc1 (stereo unspecified)
-1%	CCCC(CCC(=O)NC1CCCCC1)C(=O)O (stereo unspecified)
-6%[0.501 µM]	CCc1ccc(CNC(=O)C2CC(=O)N(CCc3ccc(C)cc3)C2)cc1 (stereo unspecified)
-1%	CC(=O)c1ccc(-n2nncc2-c2ccc([N+](=O)[O-])cc2)cc1
-1%	Cn1nnc2c[n+](CC(=O)c3ccc(Cl)cc3)cc(Br)c21
-12%	Cc1ccc(S(=O)(=O)N2CCCCC2)cc1C(=O)NCCC1=CCCCC1
14%	COC(=O)C(CN)c1c[nH]c2ccc(OC)cc12 (stereo unspecified)
-2%	O=C(CCCNS(=O)(=O)c1cccc2nsnc12)NC1CCCCC1
-6%	O=C(Nc1nnc(-c2ccccc2SCc2ccccc2F)s1)Nc1ccccc1F
-3%	CCc1nc(SCC(=O)Nc2cccc3ccccc23)[nH]c(=O)c1C
-6%	Cc1ccc(Nc2c3c(nc4nc(-c5cccs5)nn24)CCCC3)cc1F
-1%	CC(C)OCc1ccc(C(=O)N2CCN(S(=O)(=O)c3ccc(Br)s3)CC2)cc1
1%	Cc1cc(C(=O)COC(=O)c2ccc[nH]c2=O)c(C)n1C1CC1
-3%	CCN(CCn1cccn1)C(=O)CCc1nnc(CCc2ccccc2OC)o1
-18%	CCCCCCCNC1=CC(=O)CC(c2ccco2)C1 (stereo unspecified)
-4%	C=CCOc1ccc(C2c3c(oc4ccc(C)cc4c3=O)C(=O)N2CCCN2CCOCC2)cc1 (stereo unspecified)
1%	COc1ccc(CNS(=O)(=O)c2c(C)[nH]c(C)c2C(=O)N2CCCCC2)cc1
-6%	Cc1cc2c(=O)n(C)c(SCC(=O)c3cc4ccccc4o3)nc2s1
-7%	CC(C)N(C(=O)CN1CCN(S(=O)(=O)c2ccc(Br)s2)CC1)C(C)C
-3%	O=C(O)/C=C/C(=O)OC1CC2CCC1C2 (stereo unspecified)
-11%	O=C(NCCCN1CCOCC1)C(C(=O)c1ccccc1)n1ccccc1=O (stereo unspecified)
-6%	Cc1noc(C)c1C(=O)Nc1sccc1C(N)=O
7%	COc1ccc(N2C(=O)CS(=O)(=O)C23C(=O)N(Cc2c(F)cccc2Cl)c2ccccc23)cc1 (stereo unspecified)

Continuation.
KAT2A inh	canonical_smiles
-4%	COc1cccc(CNC(=O)COC(=O)c2ccc(Cl)s2)c1
-21%	O=C(Nc1ccc2nn(-c3ccccc3)nc2c1)c1ccc(Br)o1
-6%	CCCCOc1ccc(C(=O)NCCc2csc(-c3cccc(F)c3)n2)cc1
-3%	O=C(O)c1csc(-c2cccs2)n1
4%	O=C(Nc1nc2cc3c(cc2s1)OCCO3)C1CCCCC1
1%	O=C(CCN1CCN(c2ccccc2)CC1)NNC(=O)Cc1ccc(Br)cc1
-7%	Cc1ccc(NC(=S)c2ccccc2)cc1
0%	Cc1cc(C(=O)COC(=O)c2ccc3c(c2)NC(=O)CS3)c(C)n1CCc1ccc(Cl)cc1
1%	CC12CN3CCN(CC(C3)/C1=N\N=C1/C3CN4CCN(C3)CC1(C)C4)C2
-2%	CCOc1ccc2sc(NS(=O)(=O)c3ccc(N)cc3)nc2c1
-13%	N#CNC(=Nc1cccc(F)c1)SCc1ccccc1F
-3%	O=C(NC1CCSC1=O)c1cccc(Cl)c1 (stereo unspecified)
-5%	O=C(CCCn1c(=O)[nH]c2ccsc2c1=O)N1CCN(c2cccc(C(F)(F)F)c2)CC1
-2%	CCOC(=O)Cc1csc(NC(=O)CSc2cc(Cl)ccc2Cl)n1
-1%	Cc1ccc(C)c(-n2c(CNc3ccc(F)cc3)nnc2SCC(N)=O)c1
-13%	CCn1c(=O)c(=O)n(CC)c2cc(N3CCCCC3)c(NC(=O)c3ccc(Cl)cc3)cc21
2%	COC(=O)C(Cc1cnc(Cl)s1)(C(=O)OC)c1ccc(C(F)(F)F)cc1[N+](=O)[O-]
-10%	Cc1cccc(COCC(Cc2ccccc2)N2CCN(C(=O)c3cc(Cl)cc(Cl)c3)CCC2=O)c1 (stereo unspecified)
2%	Cc1cc(Cl)ccc1OCc1nc(-c2ccc(-n3cccc3)cc2)no1
-8%	COc1cccc(-n2c(Cc3cc(=O)[nH]c(=O)[nH]3)nnc2SCC(=O)NC2CCCCC2)c1
-5%	CC(C)(C)c1cc2cccnc2n1Cc1cccc(Cl)c1
-2%	C/C(=N\NC(=O)Cc1ccc(Cl)cc1)c1cccc(NC(=O)c2cccnc2)c1
-24%	O=C(NC(=S)Nc1ccc(Br)cn1)c1cccnc1

Structures from the list above with two or more sulfur atoms, in the order listed:
KAT2A inh	canonical_smiles
-5%	O=C(N/N=C/c1ccc([N+](=O)[O-])o1)c1ccc(NS(=O)(=O)c2cccs2)cc1
-6%	CS(=O)(=O)N(CC(=O)Nc1ccc(S(=O)(=O)N2CCCC2)cc1)c1ccccc1F
-4%	O=C(/C=C/c1cccs1)NC(=S)NNC(=O)Cc1cccs1
0%	COc1ccc(-c2nnc(SCC(=O)c3cccs3)o2)cc1
-5%	COc1ccccc1CNC(=O)c1cc2c(s1)-c1ccc(Cl)cc1SC2
-2%	O=C(CCCNS(=O)(=O)c1cccc2nsnc12)NC1CCCCC1
-6%	O=C(Nc1nnc(-c2ccccc2SCc2ccccc2F)s1)Nc1ccccc1F
-1%	CC(C)OCc1ccc(C(=O)N2CCN(S(=O)(=O)c3ccc(Br)s3)CC2)cc1
-6%	Cc1cc2c(=O)n(C)c(SCC(=O)c3cc4ccccc4o3)nc2s1
-7%	CC(C)N(C(=O)CN1CCN(S(=O)(=O)c2ccc(Br)s2)CC1)C(C)C
-3%	O=C(O)c1csc(-c2cccs2)n1
-2%	CCOc1ccc2sc(NS(=O)(=O)c3ccc(N)cc3)nc2c1
-2%	CCOC(=O)Cc1csc(NC(=O)CSc2cc(Cl)ccc2Cl)n1
